Screening data deposited in PubChem BioAssay by National Center for Advancing Translational Sciences (NCATS).
miR-21 FLuc – raises the signal of a miR-21 reporter; 340,000 tested, under 10 active; HeLa miR-21 FLuc reporter, luciferase, 48 h; Potency, µM (series often up to 38.3 µM), for inactives: at the highest dose reporter change, positive = more light; active = well fitted rising curve with a large enough effect; inconclusive = small, poorly fitted or top-dose-only effect; inactive = no such curve, though single readings can be large or run the other way;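 further: % of control where 0% means no effect; miR-21 action dims this reporter so a rising signal means less miR-21 action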
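Using DMEM plus 10% FBS, HeLa miR-21-FLuc cells are incubated with test compounds (final up to about 40uM) for 48 hours; firefly luciferase signal is then imaged following reagent-mediated lysis.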
The depositor's hits bear a star; ? = inconclusive; [ ] = another dose, or the depositor's remark. This is a subset. The share of hits here may be higher or lower than overall.

| Compound | miR-21 FLuc |
| --- | --- |
| O=C(CSc1ccnc(=O)[nH]1)NCc1ccc(F)cc1 | -0.2% |
| COc1ccc(C(=O)NC2CC(=O)N(c3ccc4c(c3)OCCO4)C2)cc1 (stereo not given) | -2.1% |
| O=C1CC(c2nc3ccccc3[nH]2)CN1c1cccc(Cl)c1 (stereo not given) | 4.9% |
| O=C(/C=C/c1cn(CC(O)CN2CCc3ccccc32)c2ccccc12)c1ccc(Br)cc1 (stereo not given) | ? |
| Cc1ccc(-n2ncc3c(N4CCN(Cc5ccccc5)CC4)ncnc32)cc1 | -24.1% |
| O=C(NCCn1cc(SCc2ccccc2)c2ccccc21)c1cccs1 | 29.7% |
| CCOC(=O)CSc1nc2c(sc3ccccc32)c(=O)n1CCc1ccccc1 | 2.7% |
| COc1cc(OC)cc(C(=O)Nc2cc(-c3nc4cccnc4s3)ccc2C)c1 | -1.5% |
| CCC(=O)N1c2ccccc2CC1C(=O)NCc1cc(Br)ccc1OC (stereo not given) | -0.6% |
| O=C(CC1N=C2c3ccccc3N=C(SCC(=O)Nc3ccc(F)cc3)N2C1=O)NCc1ccc2c(c1)OCO2 (stereo not given) | -9.0% |
| Fc1ccc(C(NCCc2ccccc2)c2nnc(-c3ccccc3Cl)o2)cc1 (stereo not given) | -4.8% |
| COc1ccc(-c2cc(C(=O)N3CCN(c4ccccc4OC)CC3)c3cc(C(C)C)ccc3n2)cc1 | 27.9% |
| Cc1cccc(C)c1NC(=O)c1sc(-n2nc(C)c(Cc3ccccc3)c2C)nc1C | -1.8% |
| CC(C)S(=O)(=O)c1oc(-c2ccc(F)cc2)nc1S(=O)(=O)c1ccccc1 | ? |
| Cc1ccc(-n2nnc(-c3nsc(NC(=O)c4ccc(C)c(C)c4)n3)c2C)cc1 | -2.5% |
| CCC(C)NC(=O)c1c2c(nc3ccccc13)C(=O)N(C1CCCCC1)C2 (stereo not given) | 1.7% |
| O=C(CCC1N=C2c3ccccc3N=C(SCC(=O)Nc3cccc(Cl)c3)N2C1=O)NCc1ccco1 (stereo not given) | 2.1% |
| O=C1CCCc2cc(S(=O)(=O)NCC3CCC(C(=O)Nc4ccc(Cl)cc4)CC3)ccc2N1 (stereo not given) | 12.7% |
| Cc1ccc(CNC(=O)c2ccc(CSCc3ccccc3C)o2)cc1 | -2.2% |
| COCCn1c(C)cc(O)c(C(c2ccc(Cl)cc2)N2CCCCC2)c1=O (stereo not given) | -0.5% |
| O=C(NCCc1ccccc1)c1cnc2sc(N3CCOCC3)nn2c1=O | -16.7% |
| CCOc1ccc(S(=O)(=O)N2CCN(c3ccccc3)CC2)cc1C(N)=O | -8.0% |
| Cc1ccc(NC(=O)C(=O)c2cc(C)n(-c3ccc(F)cc3)c2C)cc1C | -18.7% |
| Cc1cc(C)cc(NC(=O)N2CCN(C(=O)c3nsc4ccccc34)CC2)c1 | 1.9% |
| O=C(COc1ccccc1-c1nc(-c2ccccc2)no1)Nc1ccc([N+](=O)[O-])cc1 | -3.8% |
| CCC(=O)OC1=CN(Cc2ccccc2)S(=O)(=O)c2ccccc21 | 23.4% |
| COC(=O)c1cc2sccc2n1Cc1ccc(F)cc1 | 22.0% |
| Cc1ccc(Cl)cc1NC(=O)c1cnn2c(C(F)F)cc(-c3ccccc3)nc12 | -2.7% |
| O=C(NCCc1ccc(Cl)cc1)C(=O)NCC(c1cccs1)S(=O)(=O)c1cccs1 (stereo not given) | 25.5% |
| CCc1cccc(NC(=O)C(Cc2ccccc2)NS(=O)(=O)c2ccc3c(c2)c(=O)n(C)c(=O)n3C)c1 (stereo not given) | ? |
| COc1ccc(-c2c3c(nc4sc(C(=O)Nc5ccc(Cl)cc5)c(N)c24)CC(C)(C)CC3=O)cc1 | 0.8% |
| COc1ccccc1CNC(=O)CCCn1c(=O)c2ccccc2n(Cc2ccc(C)cc2)c1=O | 3.2% |
| CCOC(=O)c1noc2ncn(CC(=O)Nc3ccc(C)c(F)c3)c(=O)c12 | 5.6% |
| Cc1nc2ccccc2n1CC(O)COc1ccc(C(=O)O)cc1 (stereo not given) | 0.1% |
| Cc1cc2nn(-c3ccc(F)cc3)nc2cc1NC(=O)c1cccc([N+](=O)[O-])c1C | -35.6% |
| Cc1ccc(Cl)cc1NC(=O)COC(=O)CC(C)(C)CC1=NS(=O)(=O)c2ccccc2N1 | 26.3% |
| CCn1c(=O)c(=O)n(CC)c2cc(N3CCCCC3)c(NC(=O)c3cccc(F)c3)cc21 | 1.0% |
| CCCN(CCC)CCCNC(=O)C1CCC(CNS(=O)(=O)c2ccc(NC(C)=O)cc2)CC1 (stereo not given) | -0.8% |
| CCOc1ccc(S(=O)(=O)c2cc3cccc(OCC)c3oc2=O)cc1 | -1.0% |
| Cc1oc2c(c(C)cc3oc(=O)c(CC(=O)NCCc4ccccc4F)c(C)c32)c1C | 4.2% |
| Cc1ccc(S(=O)(=O)c2c(Nc3ccccc3)sc(C(=O)c3ccc4c(c3)OCO4)c2N)cc1 | 16.5% |
| Cc1ccc(N2C(=O)CSC23C(=O)N(CC(=O)NCCc2ccccc2)c2ccccc23)cc1C (stereo not given) | 3.3% |
| CCOc1ccc2nc(N3CCC(C(=O)Nc4c(C)cccc4C)CC3)sc2c1 | -15.8% |
| CCc1c(C)sc2c1CCN(C(=O)Nc1cc(C)ccc1C)C2c1ccc(OC)cc1 (stereo not given) | 12.3% |
| COC(=O)c1sccc1S(=O)(=O)N1CCN(c2ccccc2OC)CC1 | -1.4% |
| N#Cc1ccccc1CN1C(=O)c2ccccc2Sc2ccc(C(=O)OCc3ccco3)cc21 | -1.4% |
| COCCNc1nc(NCc2ccccc2OC)c2cnn(C)c2n1 | -0.3% |
| O=C(Nc1ccccc1)c1nc[nH]c1C(=O)O | -0.5% |
| Cc1c(Cl)cccc1NC(=O)N1CCN(Cc2cc(=O)n3nc(-c4ccccc4F)sc3n2)CC1 | 0.1% |
| Cc1cccn2c(Nc3ccccc3)c(-c3ccc(N4CCOCC4)cc3)nc12 | -27.5% |
| COCCCNC(=O)c1ccc2c(c1)nc1n2CCCCC1 | -27.4% |
| O=c1oc2ccc(F)cc2c2c1C1O[C@](c3ccsc3)(Cc3c1ccc1ccccc31)O2 | -6.9%[7.66 µM] |
| O=C(Nc1cccc(C(=O)N2CCN(c3cccc(Cl)c3)CC2)c1)c1nsc2ccccc12 | -27.5% |
| CCOc1ccccc1N(C)C(=O)NCc1noc2ccccc12 | -8.4% |
| Cc1cc(C)cc(NC(=O)c2cc(S(=O)(=O)NCCC3=CCCCC3)ccc2F)c1 | 3.3% |
| Cc1ccc(C)c(OC(=O)CSc2nnc(-c3ccc4c(c3)OCO4)o2)c1 | -0.8% |
| O=C(CCc1ccccc1)NCCc1csc(-c2cccc(F)c2)n1 | -9.1% |
| Cc1ccccc1CNC(=O)CN1C(=O)C2CCCCN2c2ccc(C(=O)N3CCCC3)cc21 (stereo not given) | 1.1% |
| O=C1CCCc2cc(S(=O)(=O)N3CCCC(C(=O)NCc4ccccc4)C3)ccc2N1 (stereo not given) | 7.7% |
| CCc1cccc(NC(=O)CSc2ncc3c(n2)-c2cc(Cl)ccc2N(C)S3(=O)=O)c1 | -7.9% |

Further structures
| Compound | miR-21 FLuc |
| --- | --- |
| O=C(CSc1nc2c(sc3ccccc32)c(=O)n1CCCC(=O)NC1CCCC1)Nc1ccc(F)cc1 | 8.4% |
| O=S(=O)(c1ccc(Cl)cc1)c1nc(-c2ccco2)oc1SCc1ccccc1F | 11.8% |
| COc1ccc(NC(=O)Cn2c(=O)n(CC(=O)NCCc3ccccc3)c(=O)c3ccccc32)cc1 | -38.7% |
| CCOC(=O)c1c(NC(=O)CCCOc2ccccc2C)sc2c1CCC(C)C2 (stereo not given) | -1.2% |
| Cc1ccc(N(CC(=O)NCc2ccc(Cl)cc2)S(=O)(=O)N(C)C)cc1 | 9.1% |
| Cc1ccc(OCC(=O)Nc2ccc(S(=O)(=O)N(Cc3ccccc3)c3ccccc3)cc2)cc1 | 6.0% |
| Cc1ccc(-n2cc(-c3ccccc3)c3c(N4CCCCC4)ncnc32)cc1 | 14.5% |
| COc1ccc(OC)c(NC(=O)Cn2cnc3c(oc4ccccc43)c2=O)c1 | 0.8% |
| Cc1cccc(N2CCN(C(=O)c3ccc4c(Cl)c5c(nc4c3)CCCC5)CC2C)c1 (stereo not given) | -0.4% |
| O=C(CCCCCn1c(=O)[nH]c2ccccc2c1=O)NCCc1ccccc1 | -10.6% |
| O=C(NCc1ccccc1Cl)c1ccc2c(c1)NC(=O)C(CS(=O)(=O)Cc1ccc(Cl)cc1)N2 (stereo not given) | -14.1% |
| COc1ccc(-c2nnc(SCC(=O)c3ccc(NC(C)=O)cc3)o2)cc1OC | -5.3% |
| O=C(CN1CCSc2ccccc21)N1CCN(c2cccc(Cl)c2)CC1 | 6.6% |
| Cc1ccc(NC(=O)Cn2c(=O)c(CNc3ccccc3)cc3cc4c(cc32)OCCO4)cc1 | 0.7% |
| O=C(Nc1nnc(S(=O)(=O)N2CCCc3ccccc32)s1)c1ccccc1 | -29.1% |
| CCc1nn2c(=O)c(S(=O)(=O)Nc3ccc(C)c(C)c3)c(C)nc2s1 | 5.5% |
| O=C(Cn1cc(S(=O)(=O)Cc2ccccc2Cl)c2ccccc21)NCCc1ccccc1 | -4.9% |
| Cc1cc(C)c(NC(=O)CN2C(=O)CCSc3ccc(S(=O)(=O)N4CCCC4)cc32)c(C)c1 | -15.0% |
| COc1ccc(-n2nnnc2C2CCN(S(=O)(=O)c3cccc(C(F)(F)F)c3)CC2)cc1 | 6.5% |
| Cc1ccc(NC(=O)Cn2c(=O)n(CCCC(=O)NCc3ccc4c(c3)OCO4)c(=O)c3ccccc32)cc1 | 0.0% |
| COc1ccccc1NC(=O)c1oc2ccccc2c1NC(=O)COc1cccc(C)c1 | -0.7% |
| CC(=O)c1cc2c(cc1NC(=O)c1c(C)nn(-c3ccc(C)cc3)c1-n1cccc1)OCO2 | -0.3% |
| COc1ccc(NC(=O)C(=O)NCCc2ccccc2)cc1OC | -6.8% |
| Cc1ccc(NS(=O)(=O)c2ccc3c(c2)CC(=O)N3)cc1Cl | -5.2% |
| COC(=O)c1cc2oc3ccccc3c2n1Cc1c(C)cc(C)cc1C | 1.2% |
| Cc1ccc(OCC(=O)Nc2nnc(SCc3cc(=O)c4ccccc4[nH]3)s2)cc1C | -3.3% |
| Cc1nc(-n2nc(C)c(Cc3ccc(Cl)cc3)c2C)sc1C(=O)N1CCC(C)CC1 | -1.6% |
| CCN(CC)C(=O)c1sc2c(c1C)c(=O)n(CCc1ccccc1)c(=O)n2Cc1cccc(Cl)c1 | 29.0% |
| COc1ccc(OC)c(-n2cnc3cc(C(=O)NC4CCCC4)ccc32)c1 | -14.7% |
| COc1cccc(NS(=O)(=O)c2ccc(-c3cc(C)no3)s2)c1 | 23.4% |
| COc1cccc(NC(=O)c2c(N3CCCC3=O)c3cc(C)ccc3n2C)c1 | 14.8% |
| CCOC(=O)c1ccccc1NC(=O)CN(c1cccc(C)c1C)S(=O)(=O)c1ccccc1 | -7.0% |
| O=C1CS(=O)(=O)C2(C(=O)Nc3ccccc32)N1c1cccc(Cl)c1 (stereo not given) | 2.6% |
| Cc1ccc(C)c(CSc2cn(CCNC(=O)c3cccs3)c3ccccc23)c1 | ? |
| CCN(CC)S(=O)(=O)c1ccc2nc(NC(=O)c3ccc(Br)o3)sc2c1 | -7.1% |
| O=C(CCC1N=C2c3ccccc3N=C(SCc3cccc(Cl)c3)N2C1=O)NCc1cccs1 (stereo not given) | 19.5% |
| CC(C)C1N=C2c3ccccc3N=C(SCC(=O)NCc3ccc(F)cc3)N2C1=O (stereo not given) | 5.3% |
| O=S(=O)(c1ccc(Cl)cc1)c1nnn2c1nc(N1CCCCC1)c1sccc12 | -0.6% |
| O=C(COc1ccc(Cl)cc1)OCc1cc(=O)n2nc(C3CC3)sc2n1 | -1.7% |
| O=C(CCS(=O)(=O)c1cc2c(cc1Cl)NC(=O)CO2)NCc1ccc(Cl)cc1 | -2.5% |
| O=C(Cc1csc2nc(-c3ccc(F)cc3)cn12)NCc1ccccc1 | 1.9% |
| O=C(NCCCc1nc2ccccc2n1Cc1ccc(F)cc1)C1CCCCC1 | 10.6% |
| Cc1ccc(SCCNC(=O)CN(c2ccccc2)S(=O)(=O)N(C)C)cc1 | -7.8% |
| Cc1cccc(C(=O)N2CCc3cc(CNS(=O)(=O)c4ccc(Cl)s4)ccc32)c1 | 7.7% |
| Cc1ccccc1-c1noc(-c2ccc(NC3CCCC3)c([N+](=O)[O-])c2)n1 | -28.4% |
| COc1cccc2sc(N(Cc3cccnc3)C(=O)COc3ccccc3)nc12 | -1.8% |
| CCCCOC(=O)c1ccc(NC(=O)/C(C#N)=C/c2ccc(-c3ccccc3)o2)cc1 | -7.4% |
| O=C(Cn1c(=O)ccc2cc(S(=O)(=O)N3CCCC3)ccc21)Nc1ccc(Cl)cc1 | 11.5% |
| Cc1ccccc1C(=O)Nc1cccc(-c2cn3cccnc3n2)c1 | -12.2% |
| CCOCCCn1c(=N)c(C(=O)NC(C)c2ccccc2)cc2c(=O)n3cccc(C)c3nc21 (stereo not given) | 29.3% |

An excerpt from the list above, for reference:
| Compound | miR-21 FLuc |
| --- | --- |
| O=C(Cc1csc2nc(-c3ccc(F)cc3)cn12)NCc1ccccc1 | 1.9% |
| O=C(NCCCc1nc2ccccc2n1Cc1ccc(F)cc1)C1CCCCC1 | 10.6% |
| Cc1ccc(SCCNC(=O)CN(c2ccccc2)S(=O)(=O)N(C)C)cc1 | -7.8% |
| Cc1cccc(C(=O)N2CCc3cc(CNS(=O)(=O)c4ccc(Cl)s4)ccc32)c1 | 7.7% |
| Cc1ccccc1-c1noc(-c2ccc(NC3CCCC3)c([N+](=O)[O-])c2)n1 | -28.4% |
